NOMO-1 viab: STK33 inhibitor candidate reducing NOMO-1 cell viability; AID 2330; NOMO-1 AML viability, CellTiter-Glo luminescence, 72 h; inhibition, % (no concentration beside the values); hit rate 7.5% among 37,000;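 active = most replicates above 80%; inconclusive = exactly half above 80%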;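 also: wells of about 30 µL received 25 nL stock; 0% = median of vehicle wells and 100% = reference inhibitor level; the first replicate is given; inactives centre near 10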
* marks the source's active call; other numbers are inactive results; ? = inconclusive.

SMILES	NOMO-1 viab
Cc1noc(C)c1NC(=O)N(C)C[C@H]1Oc2ccc(NC(=O)C3CC3)cc2C(=O)N([C@@H](C)CO)C[C@@H]1C	8.8
Cn1c(SCC(=O)Nc2ccc(Oc3ccccc3)cc2)nnc1-c1ccncc1	38.2
C=C1C(=O)O[C@@H]2/C=C(/CO[C@@H]3O[C@H](CO)[C@@H](O)[C@H](O)[C@H]3O)CC/C=C(/C=O)C[C@H](O)[C@@H]12	6.0
Cc1noc(C)c1S(=O)(=O)Nc1cccc2c1O[C@@H](CN(C)Cc1ccc(C(F)(F)F)cc1)[C@@H](C)CN([C@@H](C)CO)C2=O	17.4
C[C@@H]1CN([C@H](C)CO)C(=O)c2cccc(NC(=O)Nc3ccccc3)c2O[C@H]1CN(C)S(C)(=O)=O	17.1
CCn1c(SCC(=O)Nc2ccc(F)c(Cl)c2)nnc1-c1ccc(Cl)cc1Cl	21.6
C[C@@H]1CN([C@H](C)CO)C(=O)c2cc(NC(=O)c3ccncc3)ccc2O[C@@H]1CN(C)C(=O)Nc1ccc2c(c1)OCO2	-9.8
CCOC(=O)c1cnn(C(=O)COc2ccc(C(C)(C)C)cc2C(C)(C)C)c1N	38.1
CCc1ccccc1N(CC(=O)NC)S(C)(=O)=O	16.6
Cc1nn(C(C)(C)C)c(OC(=O)c2cccc(Br)c2)c1S(=O)(=O)c1ccccc1	119.2*
Cc1ccc(C)c(NC(=O)c2ccc(OCC(=O)Nc3ccc(Cl)c(Cl)c3)cc2)c1	-4.6
OC(C#CCN1CCOCC1)c1cccs1 (stereo unspecified)	0.2
COc1ccccc1NC(=O)C1=C(C)Nc2nnnn2C1c1ccccc1OCc1ccccc1 (stereo unspecified)	30.7
COc1ccc(CN(C)C[C@@H]2Oc3ccc(NC(=O)NC4CCCCC4)cc3C(=O)N([C@@H](C)CO)C[C@H]2C)cc1	0.1
CCOC(=O)NC(=O)CSc1nc2ccccc2s1	3.1
COc1cc(C2NCCS2)cc(OC)c1OC (stereo unspecified)	23.5
C[C@H]1CN([C@@H](C)CO)C(=O)c2cc(NC(=O)CCCN(C)C)ccc2O[C@H]1CN(C)Cc1ccc(C(=O)O)cc1	4.5
C[C@H]1CN([C@@H](C)CO)C(=O)c2cc(NC(=O)CCCN(C)C)ccc2O[C@@H]1CN(C)C(=O)Nc1ccccc1	19.8
Cc1cc2nc(SCc3ccccc3C#N)[nH]c2cc1C	12.8
C[C@H]1CN([C@@H](C)CO)C(=O)c2cc(N(C)C)ccc2O[C@H]1CN(C)Cc1ccc(Oc2ccccc2)cc1	17.3
Cc1noc(C)c1NC(=O)N(C)C[C@@H]1Oc2ccc(N(C)C)cc2C(=O)N([C@@H](C)CO)C[C@H]1C	7.0
O=C(Nc1ccc(Cl)cn1)c1cccc(S(=O)(=O)N2CCCCCC2)c1	49.8
Cc1ccc(NC(=O)c2cccc(S(=O)(=O)Nc3cccc(C(=O)O)c3)c2)cc1	-12.5
Cc1ccc(NC(=O)CSc2nnc(-c3ccc(Cl)c(Cl)c3)n2C)cc1C	2.4
CCn1c(SCC(=O)Nc2ccc(C)c(F)c2)nnc1-c1cccc(Cl)c1	5.2

Rewritten as a markdown table: 3 of the compounds above
| structure | NOMO-1 viab |
| --- | --- |
| Cc1cc2nc(SCc3ccccc3C#N)[nH]c2cc1C | 12.8 |
| C[C@H]1CN([C@@H](C)CO)C(=O)c2cc(N(C)C)ccc2O[C@H]1CN(C)Cc1ccc(Oc2ccccc2)cc1 | 17.3 |
| Cc1noc(C)c1NC(=O)N(C)C[C@@H]1Oc2ccc(N(C)C)cc2C(=O)N([C@@H](C)CO)C[C@H]1C | 7.0 |

Later entries.
SMILES	NOMO-1 viab
C[C@@H]1CN([C@@H](C)CO)C(=O)c2cc(NS(=O)(=O)c3ccccc3)ccc2O[C@H]1CN(C)CC1CCCCC1	-8.0
CC(C)n1c2ccccc2c2nnc(SCC(=O)N3c4ccccc4Sc4ccccc43)nc21	6.7
COc1ccc(-c2cc(=O)[nH]c(SCc3nc4ccccc4c(=O)[nH]3)n2)cc1	30.0
C[C@@H]1CN([C@@H](C)CO)C(=O)Cc2cc(NC(=O)C3CCCCC3)ccc2O[C@@H]1CN(C)C(=O)Nc1ccc2c(c1)OCO2	-3.9
Cc1ccc(S(=O)(=O)N(C)C[C@@H]2Oc3c(NC(=O)c4cc(C)nn4C)cccc3C(=O)N([C@@H](C)CO)C[C@@H]2C)cc1	18.2
C[C@@H]1CCCCO[C@H](CN(C)CC2CCCCC2)[C@@H](C)CN([C@H](C)CO)C(=O)c2cc(NS(=O)(=O)c3ccc(Cl)cc3)ccc2O1	?
CNC[C@H]1Oc2ccc(NC(=O)Nc3c(C)noc3C)cc2C(=O)N([C@@H](C)CO)C[C@@H]1C	-10.9
C[C@H]1CN([C@@H](C)CO)C(=O)c2cc(NC(=O)Cc3cn(C)c4ccccc34)ccc2O[C@@H]1CN(C)C(=O)Nc1cccc2ccccc12	4.8
COc1ccc([N+](=O)[O-])cc1NC(=O)c1ccccc1N(C)S(=O)(=O)c1ccc(C)cc1	25.6
Cc1noc(C)c1S(=O)(=O)Nc1ccc2c(c1)C(=O)N([C@@H](C)CO)C[C@H](C)[C@H](CN(C)C)O2	-11.3
C[C@H]1CN([C@@H](C)CO)C(=O)c2cc(NC(=O)Nc3cccc4ccccc34)ccc2O[C@@H]1CN(C)CC1CCCCC1	-13.5
Cc1noc(C)c1NC(=O)N(C)C[C@@H]1Oc2ccc(NC(=O)Nc3cccc4ccccc34)cc2C(=O)N([C@@H](C)CO)C[C@@H]1C	-11.3
OC(c1nc2ccc(Cl)cc2[nH]1)C(O)c1nc2ccc(Cl)cc2[nH]1 (stereo unspecified)	60.1
Cc1c(Cl)cccc1NC(=O)CSc1nccc(=O)[nH]1	22.7
O=c1[nH]c2ccccc2n1CCCSc1nc2ccccc2[nH]1	61.7
CC(C)NC(=O)N(C)C[C@H]1Oc2ccc(NC(=O)Nc3cccc4ccccc34)cc2C(=O)N([C@@H](C)CO)C[C@@H]1C	4.4
CC(C)NC(=O)N(C)C[C@@H]1Oc2ccc(NC(=O)Nc3ccccc3)cc2CC(=O)N([C@H](C)CO)C[C@@H]1C	7.3
C[C@@H]1CN([C@H](C)CO)C(=O)Cc2cc(NC(=O)Nc3ccc(C(F)(F)F)cc3)ccc2O[C@@H]1CN(C)C(=O)Nc1cccc2ccccc12	31.2
C[C@@H]1CN([C@@H](C)CO)C(=O)c2cccc(NC(=O)c3ccc(-c4nccs4)cc3)c2O[C@H]1CN(C)C(=O)Nc1ccc(C(F)(F)F)cc1	-3.5
COc1cc(-c2nnc(SCC(=O)c3ccc(-c4ccccc4)cc3)n2C)cc(OC)c1OC	40.0
Cc1noc(C)c1NC(=O)N(C)C[C@H]1Oc2ccc(NC(=O)Cn3cnnn3)cc2C(=O)N([C@@H](C)CO)C[C@H]1C	3.9
O=C(CC1(O)C(=O)N(Cc2ccccc2)c2ccc(Br)cc21)c1ccccc1[N+](=O)[O-] (stereo unspecified)	99.5*
C[C@H](CO)N1C[C@H](C)[C@@H](CN(C)Cc2ccc(Cl)c(Cl)c2)Oc2c(NS(C)(=O)=O)cccc2C1=O	-4.1
C[C@H](CO)N1C[C@H](C)[C@H](CN(C)C(=O)Nc2ccc3c(c2)OCO3)Oc2ccc(NC(=O)Cc3ccccc3)cc2CC1=O	-5.1
CCC(=O)c1cn(CC(=O)Nc2cccc(C(F)(F)F)c2)c2ccccc12	3.4
SMILES	NOMO-1 viab
O=C(CSc1nc2sc3c(c2c(=O)[nH]1)CCCC3)N(c1ccccc1)c1ccccc1	4.7
CCCNC(=O)c1ccccc1NC(=O)C1COc2ccccc2O1 (stereo unspecified)	19.1
CCOC(=O)c1c(NC(=O)C2(C)Cc3ccccc3C(=O)O2)sc2c1CCCC2 (stereo unspecified)	36.9
Cc1ccc(-c2csc3ncnc(SCC(=O)Nc4ccc(S(N)(=O)=O)cc4)c23)cc1	-6.1
C/C=C(/C)C(=O)O[C@@H]1c2cc(OC)c(OC)cc2-c2c(ccc(OC)c2OC)C[C@H]2C(=O)OC[C@H]12	116.8*
OC1(c2ccc3c(c2)OCO3)OCC2C(c3ccc4c(c3)OCO4)OCC21O (stereo unspecified)	15.6
C[C@H]1CN([C@@H](C)CO)C(=O)c2cc(NS(=O)(=O)c3ccc(F)cc3)ccc2O[C@@H]1CN(C)C	-4.0
Cc1cc(C)c(C(=O)Nc2ccc(C)c(C)c2)c(CC(C)(C)C(=O)O)c1	2.8
COc1ccc(NC(=O)CC2NC(=O)NC2=O)cc1 (stereo unspecified)	-3.6
C[C@H](CO)N1C[C@H](C)[C@@H](CN(C)C)Oc2c(NS(=O)(=O)c3ccc(F)cc3)cccc2C1=O	4.0
NC(=O)COc1ccc(Br)cc1C1C2=C(CCCC2=O)NC2=C1C(=O)CCC2	17.6
C[C@H]1CN([C@@H](C)CO)C(=O)c2cc(NS(C)(=O)=O)ccc2O[C@@H]1CN(C)CC1CCCCC1	12.6
COc1ccc(CN(C)C[C@@H]2Oc3ccc(NS(=O)(=O)c4ccc(F)cc4)cc3C(=O)N([C@H](C)CO)C[C@H]2C)cc1	16.1
Cc1ccc(-c2nc(SCC(=O)Nc3cccc(Br)c3)n[nH]2)cc1	9.8
Cc1noc(C)c1NC(=O)Nc1cccc2c1O[C@H](CN(C)C(=O)NC1CCCCC1)[C@H](C)CN([C@@H](C)CO)C2=O	11.2
COc1cc(C=Nc2ccc(Cl)cc2)ccc1OC(=O)/C=C/c1cccs1	12.9
COc1ccc(S(=O)(=O)Nc2cccc3c2O[C@@H](CN(C)CC2CCCCC2)[C@H](C)CN([C@H](C)CO)C3=O)cc1	33.4
O=S(=O)(NCc1cccnc1)c1ccc(C2CCCCC2)cc1	54.8
Cc1cc(C(=O)NCc2ccco2)no1	22.4
Cc1cc(C)cc(N2C(=O)CC(SCC(=O)Nc3ccc(Cl)cc3)C2=O)c1 (stereo unspecified)	6.9
CC(C)NC(=O)N(C)C[C@@H]1Oc2ccc(NC(=O)C3CC3)cc2CC(=O)N([C@H](C)CO)C[C@@H]1C	-2.9
C[C@@H]1CN([C@@H](C)CO)C(=O)c2cccc(NS(=O)(=O)c3cn(C)cn3)c2O[C@@H]1CN(C)C	23.4
COc1ccc(OC)c(NC(=O)CSc2nnc(C)s2)c1	-2.3
COc1ccc(NC(=O)Nc2cccc3c2O[C@@H](CN(C)C(=O)Nc2ccc4c(c2)OCO4)[C@@H](C)CN([C@@H](C)CO)C3=O)cc1	28.0
Cn1cnc2nc(NCCO)nc(NCc3ccccc3)c21	25.8

Gathered by group: the entries above with an NH in an aromatic ring
SMILES	NOMO-1 viab
Cc1cc2nc(SCc3ccccc3C#N)[nH]c2cc1C	12.8
COc1ccc(-c2cc(=O)[nH]c(SCc3nc4ccccc4c(=O)[nH]3)n2)cc1	30.0
OC(c1nc2ccc(Cl)cc2[nH]1)C(O)c1nc2ccc(Cl)cc2[nH]1 (stereo unspecified)	60.1
Cc1c(Cl)cccc1NC(=O)CSc1nccc(=O)[nH]1	22.7
O=c1[nH]c2ccccc2n1CCCSc1nc2ccccc2[nH]1	61.7
O=C(CSc1nc2sc3c(c2c(=O)[nH]1)CCCC3)N(c1ccccc1)c1ccccc1	4.7
Cc1ccc(-c2nc(SCC(=O)Nc3cccc(Br)c3)n[nH]2)cc1	9.8

Further records follow:
SMILES	NOMO-1 viab
CC(C)=CCC/C(C)=C/CC/C(C)=C/CSCC(=O)O	-5.1
CCOC(=O)c1sc(SC)c2c1CC(c1ccc(OC)cc1)CC2=O (stereo unspecified)	-11.1
C[C@@H]1CN([C@H](C)CO)C(=O)c2cc(NC(=O)Nc3ccc4c(c3)OCO4)ccc2O[C@@H]1CN(C)Cc1ccc(-c2ccccc2)cc1	78.2
Cc1ccc(S(=O)(=O)N(C)C[C@H]2Oc3ccc(NS(=O)(=O)c4ccc(Cl)cc4)cc3CC(=O)N([C@@H](C)CO)C[C@@H]2C)cc1	-10.1
CC(C)NC(=O)N(C)C[C@@H]1Oc2c(NS(=O)(=O)c3cccs3)cccc2C(=O)N([C@H](C)CO)C[C@H]1C	14.9
COc1ccc(CN(C)C[C@@H]2Oc3ccc(NC(=O)C4CC4)cc3C(=O)N([C@@H](C)CO)C[C@H]2C)cc1	9.6
Cc1cc(I)ccc1NC(=O)CN(c1cc(Cl)c(Cl)cc1Cl)S(C)(=O)=O	29.9
COc1cccc(NC(=O)CSC2=C(C#N)C(c3cccc(Br)c3)CC(=O)N2)c1 (stereo unspecified)	41.2
C[C@H]1CN([C@@H](C)CO)C(=O)c2cc(NC(=O)Cc3ccccc3)ccc2O[C@@H]1CN(C)Cc1ccc(-c2ccccc2)cc1	21.1
COc1ccc(S(=O)(=O)N(C)C[C@@H]2Oc3ccc(NC(=O)Nc4c(C)noc4C)cc3C(=O)N([C@H](C)CO)C[C@@H]2C)cc1	5.5
C[C@@H]1CN([C@H](C)CO)C(=O)c2cccc(NS(C)(=O)=O)c2O[C@H]1CN(C)Cc1ccc(Oc2ccccc2)cc1	12.2
CC(C)NC(=O)Nc1ccc2c(c1)CC(=O)N([C@H](C)CO)C[C@@H](C)[C@@H](CN(C)C(=O)NC(C)C)O2	-17.2
Cc1noc(C)c1NC(=O)N(C)C[C@H]1Oc2ccc(NS(=O)(=O)c3ccc(F)cc3)cc2CC(=O)N([C@@H](C)CO)C[C@H]1C	-4.2
C[C@H](CO)N1C[C@H](C)[C@H](CN(C)C(=O)Nc2ccc(C(F)(F)F)cc2)Oc2ccc(NC(=O)Cn3cnnn3)cc2CC1=O	0.1
COc1ccc(S(=O)(=O)Nc2ccc3c(c2)C(=O)N([C@H](C)CO)C[C@@H](C)[C@H](CN(C)Cc2ccc(C(F)(F)F)cc2)O3)cc1	13.6
COc1ccc(NC(=O)Nc2cccc3c2O[C@H](CN(C)Cc2ccc4c(c2)OCO4)[C@H](C)CN([C@H](C)CO)C3=O)cc1	-0.1
COc1ccc(NC(=O)N(C)C[C@H]2Oc3ccc(NS(=O)(=O)c4ccc(Cl)cc4)cc3CC(=O)N([C@@H](C)CO)C[C@H]2C)cc1	8.5
CCn1c(SCC(=O)Nc2ccc3c(c2)OCCO3)nnc1-c1cccc(Cl)c1	14.6
COc1ccccc1C1C(C(=O)c2sc(C)nc2C)C(=O)C(=O)N1CCCN1CCOCC1 (stereo unspecified)	17.6

This is a subset (hit frequency here may not be typical).
